# CHT allo act = human CHT allosteric activation | Q9GZV3 | CHT-expressing cells, membrane potential dye, choline EC20; hits give high values; LV-AA mutant CHT in HEK293 cells | B-score at 10 µM | 0.49% of 310,000 active;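 active means initial fluorescence not abnormally high and integrated response B-score, plate-corrected, over 3 SD above library mean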
# Target sequence (Q9GZV3 whole entry, looked up): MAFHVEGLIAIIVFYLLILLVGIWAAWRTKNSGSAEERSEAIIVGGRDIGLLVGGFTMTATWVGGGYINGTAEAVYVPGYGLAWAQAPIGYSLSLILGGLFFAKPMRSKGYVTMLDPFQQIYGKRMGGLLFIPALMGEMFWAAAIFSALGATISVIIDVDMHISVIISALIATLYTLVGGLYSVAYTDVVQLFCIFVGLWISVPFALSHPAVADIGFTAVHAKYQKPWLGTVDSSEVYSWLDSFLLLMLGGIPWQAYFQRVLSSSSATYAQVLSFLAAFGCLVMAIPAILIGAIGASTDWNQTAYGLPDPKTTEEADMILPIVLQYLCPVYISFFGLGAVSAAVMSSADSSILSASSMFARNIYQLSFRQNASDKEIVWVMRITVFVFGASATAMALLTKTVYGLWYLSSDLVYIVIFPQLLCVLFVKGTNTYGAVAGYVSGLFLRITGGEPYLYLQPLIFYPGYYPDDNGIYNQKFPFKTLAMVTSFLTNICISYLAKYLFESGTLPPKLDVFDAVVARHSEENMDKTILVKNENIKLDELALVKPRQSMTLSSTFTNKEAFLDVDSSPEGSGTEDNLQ
# Calls only; i = inactive. Only part of the results is shown, and most or all hits are left out here.
SMILES,CHT allo act
CCOC(=O)CN(C(=O)CSc1nnc(C)n1-c1ccccc1)c1cccc([N+](=O)[O-])c1,i
CCCN(CCC)CC(=O)Nc1cccc2c1OCO2,i
Cc1ccccc1NC(=O)COC(=O)CCSc1ccccc1,i
Cc1nnc(NC(=O)Cn2c(=O)sc3ccccc32)s1,i
CC1(C)CC(CC(=O)Nc2ccc([N+](=O)[O-])cc2)C(=O)O1 (centres undefined),i
O=C(Nc1ccccc1)NC1(C(=O)NCc2cccs2)CCCCC1,i
COc1cc(/C=C/C(=O)O)cc(S(=O)(=O)NCC2CCCO2)c1OC (centres undefined),i
Cc1ccc(S(=O)(=O)N/N=C/c2ccc(OCC(=O)NC(C)C)cc2)cc1,i
CSc1ccc(S(=O)(=O)N(C)Cc2ccccc2)cc1,i
Cc1ccc2nc(/C(C#N)=C/c3ccccc3C(=O)O)[nH]c2c1,i
COc1ccc(CN2CCC(n3nccc3NC(=O)CCCc3ccccc3)CC2)cc1C,i
CCc1ccc(S(=O)(=O)Nc2cc3c(cc2C)n(C)c(=O)n3C)cc1,i
Clc1cc(Cl)c2nc(N3CCOCC3)sc2c1,i
CC(=O)N(NC(N)=O)C(C)CC(=O)C1C(C)C=CCC1(C)C (centres undefined),i
O=C1CN(C(=O)COC(=O)/C=C/c2ccc(S(=O)(=O)N3CCOCC3)cc2)c2ccccc2N1,i
O=C(CSc1ccccn1)Nc1cccc([N+](=O)[O-])c1,i
CCOC(=O)C(=CNc1ccc(N2CCOCC2)cc1)C(=O)OCC,i
CC1=CN2C(=N)/C(=C/c3ccco3)C(=O)N=C2S1,i
C=CCNC(=S)N/N=C(\C)c1ccc(OC)cc1,i
CN(CCC#N)C(=O)COC(=O)c1ccc2c(=O)n3c(nc2c1)CCC3,i
COc1cc(NC(=O)Cn2cnc(S(=O)(=O)N3CCCCC3)c2)cc(OC)c1OC,i
O=C(Nc1ccccc1-c1ccccc1)c1cnccn1,i
C/C(=N\NC(=O)c1ccc(F)cc1)c1ccc(N2CCOCC2)cc1,i
Cc1ccc(NC(=O)CSCC(=O)NC2CCCCC2)cc1,i
Cc1ccc(C(O)P(=O)(OC2CCCCC2)OC2CCCCC2)cc1 (centres undefined),i
Cc1c(-c2nc(N)nc(Nc3ccccc3)n2)oc2ccccc12,i
COc1cc(OC)c(OC)cc1/C=N/n1c(-c2n[nH]c3c2CCC3)n[nH]c1=S,i
Cc1cccc(NC(=O)c2ccc(NCC3CCCO3)c([N+](=O)[O-])c2)c1 (centres undefined),i
CCn1c(C)nc2cc(C(=O)NNC(=O)Nc3ccc(Cl)cc3)ccc21,i
COc1ccc(CNC(=O)CN(C(=O)CCC(=O)Nc2nccs2)c2ccccc2C)cc1,i
O=C(CCCNC(=O)c1ccc(Cl)cc1)Nc1ccc(S(=O)(=O)Nc2ncccn2)cc1,i
COC(=O)C1=C(C)N(Cc2ccc(C)cc2)C(=O)/C1=C\c1ccc(O)c(OC)c1,i
COc1ccc(-c2cc(C(F)F)n3ncc(C(=O)N4CCSCC4)c3n2)cc1,i
COCCn1c(SCC(=O)NC2CC2)nnc1-c1ccco1,i
Cc1cccc(NC(=S)NC2CCN(Cc3ccccc3)CC2)c1C,i
COc1cc(SC)ccc1C(=O)Nc1nc2ccccc2[nH]1,i
O=C(Nc1nnc(/C=C/c2ccccc2)s1)c1ccco1,i
CCOc1ccccc1OCCCC(=O)N(CC)CC(=O)Nc1c(F)cccc1F,i
CC(=O)Nc1nccc(-c2cc(-c3ccccc3)no2)n1,i
Cc1c(NC(=O)COc2ccc3ccccc3c2)c(=O)n(-c2ccccc2)n1C,i
Cc1ccc(-c2ccc(SCC(=O)N3CCN(c4ccccc4)CC3)nn2)cc1,i
Cc1cc(=O)[nH]c(/N=C(\N)Nc2ccc(Oc3ccccc3)cc2)n1,i
O=C(CSc1nnc(-c2cccs2)n1Cc1ccco1)c1ccc2c(c1)OCO2,i
Cc1c(NC(=O)Nc2ccc(Cl)c(Cl)c2)sc(=S)n1C,i
C#CCOCCOCCOCCNc1nc(N2CCN(C(=O)[C@H](CCC(=O)O)n3cc(C(N)[C@H](C)CC)nn3)CC2)nc(N2CCN(C(=O)[C@H](Cc3ccc(O)cc3)n3cc(C(N)[C@H](C)CC)nn3)CC2)n1 (some centres undefined),i
CC1CCC(Nc2nnnn2-c2ccccc2)CC1 (centres undefined),i
COc1cccc(C(=O)O/N=C(\N)c2ccc([N+](=O)[O-])cc2)c1OC,i
O=C(CSCc1ccc(Cl)cc1)N/N=C/c1ccco1,i
COC(=O)c1sc(NC(=O)c2ccc(C)o2)nc1C,i
S=c1sc2ccccc2n1CCc1ccncc1,i
COc1ccc(CNC(=O)c2cc(-c3ccccc3OC)on2)cc1,i
COc1ccc(NC(=S)NCCC(c2ccccc2)c2ccccc2)c(OC)c1,i
CC(=O)N(CCC(Cc1ccccc1)c1ccc2c(c1)OCO2)Cc1ccccc1F (centres undefined),i
c1ccc(-c2cc(-c3nc4ccccc4[nH]3)c3ccccc3n2)cc1,i
O=C(/C=C/c1ccc(Cl)cc1)N(c1ccccn1)C1CCCCC1,i
O=C(CSc1nnc(-c2ccco2)n1CC1CCCO1)NC1CCCC1 (centres undefined),i
COc1cc2ncnc(NCc3ccc(C)o3)c2cc1OC,i
CC(C)CN(C(=O)COC(=O)c1cnccn1)c1c(N)n(Cc2ccccc2)c(=O)[nH]c1=O,i
CCn1cc([N+](=O)[O-])c(C(=O)N2CCOCC2)n1,i
COc1cc(NC(=O)c2cccs2)c(OC)cc1NC(=O)c1cccs1,i

# Continued:
SMILES,CHT allo act
CC(Sc1nc(-c2ccco2)nc2c1c(=O)n(C)c(=O)n2C)C(=O)O (centres undefined),i
CCCn1c(SCC#N)nc2c(c1=O)C1(CCCC1)Cc1ccccc1-2,i
COc1cc2c(cc1OC)CN(C(=O)CCOc1ccccc1C)CC2,i
Cc1cccc(NC(=O)CCCN2C(=O)C3CC=CCC3C2=O)c1 (centres undefined),i
O=C(NCc1cccs1)C(Cc1ccccc1)n1cccc1 (centres undefined),i
COc1ccc(NC(=O)CSc2nnc(Cc3cccn3C)n2-c2ccc(F)cc2)cc1OC,i
CCOC(=O)C1CCN(C(=O)C2CCN(c3nc4ccc(OC)cc4s3)CC2)CC1,i
COCCN1C(=O)c2ccc(C(=O)Nc3cccnc3)cc2C1=O,i
Cc1nnc(SCC(=O)NC(=O)NCc2ccco2)s1,i
CCCc1cc2c(=O)c(-c3ccc4c(c3)OCCO4)coc2cc1OS(C)(=O)=O,i
O=C(CSC(=S)N1CCCCC1)c1c(F)cccc1F,i
COc1cccc(OC)c1C(=O)Nc1ccncc1,i
CCOC(=O)CSc1c(-c2cccs2)[nH]c2ccccc12,i
COc1ccc(-c2cc(=O)oc3c(C)c(OC(=O)c4cccs4)ccc23)cc1,i
O=C(OCC(=O)N1CCCC1)c1c(Cl)ccc(Cl)c1Cl,i
O=C(CS(=O)(=O)Cc1ccccc1)N1CCN(C(=O)c2ccco2)CC1,i
NC(=O)C1(N2CCCCC2)CCN(S(=O)(=O)c2ccc(Cl)s2)CC1,i
CN(C)CCOC(=O)NCC12CC3CC(CC(C3)C1)C2,i
Cc1ccc(-n2nc3c(=O)n(CCCC(=O)NCc4ccc(Cl)cc4)nc(C)c3c2C)cc1,i
O=C(CSc1ccccn1)Nc1ccc(NC(=O)CSc2ccccn2)cc1,i
Cc1cc([N+](=O)[O-])cc2c1NC(=O)C2(O)N1CCCCCC1 (centres undefined),i
COc1ccc(-c2noc(CCCC(=O)NCc3ccco3)n2)cc1OC,i
Cc1[nH]c2ccccc2c1C(=O)COC(=O)c1c(-c2c(F)cccc2Cl)noc1C,i
Nc1nc2c(ncn2CCC(CO)CO)c(=O)[nH]1,i
Cc1cc2nnc(SCC(=O)N3CCCCC3)n2c(N)n1,i
Cc1cc(/C=N/n2cnnc2)c(C)n1-c1cccc(Cl)c1,i
O=C(CNC1C(=O)Nc2ccccc21)Sc1ccccc1 (centres undefined),i
CCNC(=O)N1CCN(CCCC(c2ccc(F)cc2)c2ccc(F)cc2)CC1,i
C=CCn1c(COc2ccc(F)cc2)nnc1SCC(=O)NC1CCS(=O)(=O)C1 (centres undefined),i
Cc1c(C)n(C(=O)CN2CCC(C(N)=O)CC2)c2ccccc12,i

# Two of these compounds, set out differently:
Molecule	CHT allo act
O=C(CNC1C(=O)Nc2ccccc21)Sc1ccccc1 (centres undefined)	i
CCNC(=O)N1CCN(CCCC(c2ccc(F)cc2)c2ccc(F)cc2)CC1	i

# Not a retest: entries from further up.
SMILES,CHT allo act
CCCc1cc2c(=O)c(-c3ccc4c(c3)OCCO4)coc2cc1OS(C)(=O)=O,i
O=C(CSC(=S)N1CCCCC1)c1c(F)cccc1F,i
COc1cccc(OC)c1C(=O)Nc1ccncc1,i
CCOC(=O)CSc1c(-c2cccs2)[nH]c2ccccc12,i
COc1ccc(-c2cc(=O)oc3c(C)c(OC(=O)c4cccs4)ccc23)cc1,i
O=C(OCC(=O)N1CCCC1)c1c(Cl)ccc(Cl)c1Cl,i
O=C(CS(=O)(=O)Cc1ccccc1)N1CCN(C(=O)c2ccco2)CC1,i
NC(=O)C1(N2CCCCC2)CCN(S(=O)(=O)c2ccc(Cl)s2)CC1,i
CN(C)CCOC(=O)NCC12CC3CC(CC(C3)C1)C2,i
Cc1ccc(-n2nc3c(=O)n(CCCC(=O)NCc4ccc(Cl)cc4)nc(C)c3c2C)cc1,i
O=C(CSc1ccccn1)Nc1ccc(NC(=O)CSc2ccccn2)cc1,i
Cc1cc([N+](=O)[O-])cc2c1NC(=O)C2(O)N1CCCCCC1 (centres undefined),i
COc1ccc(-c2noc(CCCC(=O)NCc3ccco3)n2)cc1OC,i
Cc1[nH]c2ccccc2c1C(=O)COC(=O)c1c(-c2c(F)cccc2Cl)noc1C,i
Nc1nc2c(ncn2CCC(CO)CO)c(=O)[nH]1,i
Cc1cc2nnc(SCC(=O)N3CCCCC3)n2c(N)n1,i
Cc1cc(/C=N/n2cnnc2)c(C)n1-c1cccc(Cl)c1,i
O=C(CNC1C(=O)Nc2ccccc21)Sc1ccccc1 (centres undefined),i
CCNC(=O)N1CCN(CCCC(c2ccc(F)cc2)c2ccc(F)cc2)CC1,i
C=CCn1c(COc2ccc(F)cc2)nnc1SCC(=O)NC1CCS(=O)(=O)C1 (centres undefined),i

# Next part
SMILES,CHT allo act
O=[N+]([O-])c1cccnc1NCCc1ccccc1,i
Cn1c(SCC(=O)c2ccc(O)cc2O)nnc1-c1ccccc1,i
CCOC(=O)N1CCN(S(=O)(=O)c2ccc(C(=O)Nc3nnc(C4CC4)o3)cc2)CC1,i
CCN1CCN(C(C)C(=O)Nc2c(C)n(C)n(-c3ccccc3)c2=O)CC1 (centres undefined),i
CCOc1ccc2nc(SCC(=O)NCC3CCCO3)c(C#N)cc2c1 (centres undefined),i
COc1ccc(OC)c(C2C(C(=O)Nc3nc4ccccc4s3)=C(C)NC3=C2C(=O)CCC3)c1 (centres undefined),i
Cc1cccc(-c2nsc(SCC(=O)NCc3ccc4c(c3)OCO4)n2)c1,i
Cc1nnc(SCC(=O)Nc2ccc3c(c2)COC3=O)n1-c1ccccc1,i
Cc1ccc(C2N(c3cccc(Cl)c3)C(=O)C3CCCN32)o1 (centres undefined),i
O=C1CC(c2ccccc2)n2nc(NC(=O)c3cccs3)nc2N1 (centres undefined),i
Cc1cccc(NC(=O)Cn2cc(C(=O)C3CC3)c3ccccc32)c1,i
CCCCn1nc(C(=O)NC2=NCCS2)c2ccccc2c1=O,i
C/C(=N\NS(=O)(=O)c1ccc([N+](=O)[O-])cc1)c1ccc(NC(=O)c2ccco2)cc1,i
CCCCNC(=O)c1onc(CSc2ccccc2)c1C(=O)NCCCC,i
Cn1nnnc1SCCNC(=O)C1CCC(=O)N(CCc2ccccc2)C1 (centres undefined),i
COc1ccccc1/C=C/C(=O)OCC(=O)NNC(=O)c1ccccc1,i
Cc1nc(SCC(=O)NC2CCCC2)[nH]c(=O)c1Cc1ccccc1,i
CC(C)CC(NC(N)=O)C(=O)OCC(=O)NC(=O)NC1CCCC1 (centres undefined),i
COc1ccc(C(C)(C)C)cc1NC(=O)COC(=O)c1ncc(Cl)c(Cl)c1Cl,i
CN(C)CCCOC(=O)CCc1ccccc1,i
CC1CCN(C(=O)CSc2nc(=O)n3cc(Cl)ccc3n2)CC1,i
COC(=O)c1ccsc1NC(=O)CN1CCN(c2ccc(F)cc2)CC1,i
Cc1cc(C(=O)NCC(C)(C)N2CCOCC2)c(C)o1,i
O=C(O)Cc1sc(-c2ccc(Cl)cc2)nc1-c1ccccc1,i
Cc1cc(C(=O)COC(=O)Cc2n[nH]c(=O)c3ccccc23)c(C)n1-c1cccc(C(F)(F)F)c1,i
N#C/C(=C\c1cn(-c2ccccc2)nc1-c1ccccc1)S(=O)(=O)c1ccccc1,i
COc1ccc(/C=C/C(=O)NC(=S)Nc2ccc(N3CCN(C(C)=O)CC3)cc2)cc1,i
CCOc1cc(/C=N\Nc2ccc([N+](=O)[O-])cc2)ccc1OCC(=O)Nc1ccc(C)c(C)c1,i
CCOc1cc(N2CCOCC2)c(OCC)cc1NC(=O)c1ccc(S(C)(=O)=O)cc1,i
CNC(C)C#Cc1ccc2sc3cc(OC)c(OC)cc3c(=O)c2c1 (centres undefined),i
Cc1nc(N2CCN(Cc3ccc(Cl)cc3)CC2)c2oc3ccccc3c2n1,i
O=C(CSc1ccc(Cl)cc1)Nc1ccc(N2CCN(C(=O)c3ccco3)CC2)cc1,i
CC1=CC2=NC(=O)/C(=C\c3ccc(-c4cccc(Cl)c4)o3)C(=N)N2O1,i
O=C1c2ccsc2SCCN1Cc1c(Cl)cccc1Cl,i
COc1ccccc1C(=O)NCCC(=O)NCC(C)(C)N1CCOCC1,i
Cc1ccc2c(c1)N(CC(=O)NCc1cccs1)C(=O)C(C)O2 (centres undefined),i
CCN(Cc1ccccc1)C(=O)c1cccc(S(=O)(=O)N2CCN(Cc3ccccc3)CC2)c1,i
Cc1ccccc1CSc1nc2ccccc2c(=O)[nH]1,i
CC1CCN(C(=O)c2ccc(CSc3ccc(Cl)cc3)cc2)CC1,i
COc1ccccc1NC(=S)NC(=O)C1CC1,i
COc1ccc2cc(/C=N/NC(=O)CN(c3ccccc3C)S(=O)(=O)c3ccccc3)c(Cl)nc2c1,i
CC(C)(C)S(=O)(=O)c1c(C(=O)O)cccc1C(=O)O,i
COc1ccc(C2c3[nH]c4ccccc4c3CCN2C(=O)c2ccccc2C(C)=O)c(F)c1 (centres undefined),i
COc1ccc(NC(=O)c2cc(-c3ccc(OC)c(OC)c3)nc3ccccc23)c(OC)c1,i

# Screens: PubChem, Johns Hopkins Ion Channel Center
